PV pol inh – inhibitors of poliovirus RNA polymerase binding and polymerization. poliovirus polymerase elongation, fluorescence polarization; stronger effect = lower value. % elongation, % (compound at 16.7 µg/mL). 150,000 tested, 0.66% active. AID 588519; in the data active = % elongation below about 90%; also: some results filed as inactive read as strong as hits
Target sequence (P03300 1749-2209 limits assumed): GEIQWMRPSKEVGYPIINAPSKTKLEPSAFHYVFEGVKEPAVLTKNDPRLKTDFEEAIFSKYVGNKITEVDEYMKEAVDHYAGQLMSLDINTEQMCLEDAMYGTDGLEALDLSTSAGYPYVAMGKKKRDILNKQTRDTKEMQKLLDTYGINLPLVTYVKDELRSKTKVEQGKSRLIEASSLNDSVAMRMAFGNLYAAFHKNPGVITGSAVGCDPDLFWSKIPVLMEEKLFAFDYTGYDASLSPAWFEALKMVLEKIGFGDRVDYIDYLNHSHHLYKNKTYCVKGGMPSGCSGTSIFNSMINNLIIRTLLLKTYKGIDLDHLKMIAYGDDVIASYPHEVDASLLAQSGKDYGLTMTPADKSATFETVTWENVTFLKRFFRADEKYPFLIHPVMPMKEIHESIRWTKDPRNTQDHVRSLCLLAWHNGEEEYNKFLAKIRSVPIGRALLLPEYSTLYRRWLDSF
PV pol inh intensity – also measured in PV pol inh; calls as there; % elongation; measured here: total intensity read-out; formula for this scale not given here;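 total fluorescence in place of polarization; lower means less elongation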
* = called active by the depositor. Not all compounds are listed. The share of hits here may be higher or lower than overall.

The first 5 entries as a preview:
SMILES	PV pol inh	PV pol inh intensity
COCCNC(=O)c1ccc2nc(CCc3ccccc3)oc2c1	110	96
CCOC(=O)c1cc(-c2ccccc2)n(CC(=O)Nc2ccc(OC)cc2OC)c1C	105	104
O=C(Cn1c(=O)n2nc(-c3ccccc3)nc2c2ccccc21)Nc1ccccc1C(F)(F)F	106	114
Cc1ccc2c(c1)NC(=O)C(CC(=O)Nc1cc(Cl)ccc1C)O2 (stereo not given)	102	106
COc1ccc(OC)c(NC(=O)c2csnn2)c1	107	100

All compounds of this part, from the first entry:
SMILES	PV pol inh	PV pol inh intensity
COCCNC(=O)c1ccc2nc(CCc3ccccc3)oc2c1	110	96
CCOC(=O)c1cc(-c2ccccc2)n(CC(=O)Nc2ccc(OC)cc2OC)c1C	105	104
O=C(Cn1c(=O)n2nc(-c3ccccc3)nc2c2ccccc21)Nc1ccccc1C(F)(F)F	106	114
Cc1ccc2c(c1)NC(=O)C(CC(=O)Nc1cc(Cl)ccc1C)O2 (stereo not given)	102	106
COc1ccc(OC)c(NC(=O)c2csnn2)c1	107	100
COC(=O)CN1C(=O)CSc2ccc(S(=O)(=O)Nc3cccc(Cl)c3C)cc21	103	100
O=C(CCC1N=C2c3ccccc3N=C(SCc3cccc(F)c3)N2C1=O)NCCc1ccccc1 (stereo not given)	104	109
O=C(NC1CCCc2ccccc21)c1ccc2c(c1)sc1nc(-c3ccc(F)cc3)cn12 (stereo not given)	105	107
CCN(CC)c1ccc(NS(=O)(=O)c2cc(-c3cc(C)no3)ccc2C)c(C)c1	102	98
COc1ccc(C2CC(=O)c3cc(-c4nc(-c5cccc(Cl)c5)cs4)c(=O)[nH]c3C2)cc1OC (stereo not given)	115	114
Cc1ccc(C(=O)Nc2ccc(OCc3cc(=O)n4c5c(sc4n3)CCCC5)cc2)cc1	99	100
Cc1cn2c(=O)cc(COC(=O)c3cccc(NC(=O)C(C)Oc4ccccc4)c3)nc2s1 (stereo not given)	104	106
COc1ccc(-c2cc3ccc(O)c(CN4CCCC4)c3oc2=O)cc1OC	100	123
COc1ccc(-n2cc(-c3ccccc3)nc2SCC(=O)Nc2ccccc2C)cc1	112	115
O=C(NCc1ccccc1)N1CCc2c(sc3c2CCCC3)C1c1ccccc1 (stereo not given)	108	111
COc1cc(-c2cc3n(C)c(C)c(CCC(=O)NC4CCC(C)CC4)c(=O)n3n2)cc(OC)c1OC (stereo not given)	107	109
Cc1nc2ccccc2n1CCc1nc2c3ccccc3nc(SCC(=O)Nc3cccc(C(F)(F)F)c3)n2n1	110	111
CC(=O)c1ccc(NC(=O)c2sc(-n3nc(C)c(Cc4ccccc4)c3C)nc2C)cc1	103	104
Cc1c(Cl)cccc1NC(=O)Nc1nnc(N(C)C2CCCCC2)s1	99	97
CCc1nnc2c3ccccc3nc(N3CCN(c4cc(Cl)ccc4C)CC3)n12	104	99
COc1ccc(CCC(=O)NCc2ccc3c(c2)CCN3C(=O)c2cccc(C)c2)cc1	105	103
O=C(CC1Oc2ccc(Cl)cc2NC1=O)NCc1ccccc1 (stereo not given)	100	106
CCCOc1ccc(C(=O)NCC(c2ccc(OC)cc2)N2CCCCC2)cc1 (stereo not given)	104	101
Cc1ccc(NC(=O)CN2CCCN(Cc3ccccc3Cl)S2(=O)=O)c(C)c1	102	106
CC(C)S(=O)(=O)c1oc(-c2cccs2)nc1S(=O)(=O)c1ccc(F)cc1	107	113
COc1ccc(NC(=O)C(=O)NCCc2csc(-c3ccc(Cl)cc3)n2)cc1OC	106	113
CCOC(=O)c1ccc2c(c1)N(CC(=O)Nc1ccc(CC)cc1)C(=O)c1ccccc1S2	111	107
Cc1ccc(NC(=O)CSc2nncn2C)c(C)c1	107	109
Cc1ccc(C)c(CN2C(=O)c3ccccc3Sc3ccc(C(=O)NCc4cccs4)cc32)c1	115	115
CCc1ccccc1NC(=O)c1cc(S(=O)(=O)N2CCC(C)CC2)cn1C	110	110

One compound at a time, as listed above. Order of values: PV pol inh	PV pol inh intensity
CC(=O)c1ccc(NC(=O)c2sc(-n3nc(C)c(Cc4ccccc4)c3C)nc2C)cc1 as listed: 103	104
CCOC(=O)c1ccc2c(c1)N(CC(=O)Nc1ccc(CC)cc1)C(=O)c1ccccc1S2 as listed: 111	107
O=C(CCC1N=C2c3ccccc3N=C(SCc3cccc(F)c3)N2C1=O)NCCc1ccccc1 (stereo not given) as listed: 104	109
CCc1ccccc1NC(=O)c1cc(S(=O)(=O)N2CCC(C)CC2)cn1C as listed: 110	110

The listing picks up with the 2 entries that preceded the break.
SMILES	PV pol inh	PV pol inh intensity
Cc1ccc(C)c(CN2C(=O)c3ccccc3Sc3ccc(C(=O)NCc4cccs4)cc32)c1	115	115
CCc1ccccc1NC(=O)c1cc(S(=O)(=O)N2CCC(C)CC2)cn1C	110	110
CCOC(=O)c1cc(-c2ccccc2)n(CCC(=O)NCCc2ccccc2)c1C	106	107
O=C(COc1ccc(F)cc1)Nc1ccc2nc(SCc3ccccc3)sc2c1	108	113
COc1cccc(NC(=O)c2cccc3c(=O)c4c([nH]c23)CCCC4)c1	99	105
CCOc1cccc(CC(=O)N2CCc3c([nH]c4ccc(OC)cc34)C2c2ccc(F)cc2)c1OCC (stereo not given)	106	111
CCN(CC)S(=O)(=O)c1cc(-c2onc(C)c2C)ccc1OC	108	107
Cc1cc(C)c(NC(=O)CSc2nccn2-c2cccc(Cl)c2)c(C)c1	113	110
Cc1oc2ncnc(N3CCOCC3)c2c1C(=O)NCCc1ccccc1	114	112
Cc1ccc(NC(=O)c2cc(S(=O)(=O)NCCC3=CCCCC3)ccc2F)cc1C	102	107
Cc1ccc(Cl)cc1N1C(=O)N(Cc2ccc(C#N)cc2)c2ccccc2S1(=O)=O	110	106
COc1ccc(NC(=O)Cn2c(=O)n(-c3ccc(CC(=O)NCC4CCCO4)cc3)c(=O)c3ccccc32)c(OC)c1 (stereo not given)	108	109
COc1cc(C(=O)N2CCC(c3nc4ccccc4o3)CC2)cc(OC)c1OC	108	112
CCOc1ccc(CNC(=O)c2ccc(NC(=O)N3CCSc4ncccc43)cc2)cc1OC	107	99
CCC(=O)Nc1ccccc1-c1nc2ccccc2n(CC(=O)c2ccc(Cl)cc2)c1=O	108	108
CCCn1c(=O)c2sccc2n2c(CCCC(=O)Nc3ccc(C)c(F)c3)nnc12	112	103
O=C(Nc1ccc2oc(-c3ccc4ccccc4c3)nc2c1)c1ccccc1F	102	105
Cc1cccc(NC(=O)C2(C)Cc3ccccc3C(=O)O2)c1 (stereo not given)	108	110
O=C1c2[nH]nc(-c3ccccc3O)c2C(c2ccc(Cl)cc2)N1CCc1ccccc1 (stereo not given)	111	114
CC(C)CCN1C(=O)c2ccccc2CC1(C)C(=O)NC1CCCCC1 (stereo not given)	114	113
Cc1c(-c2nc(-c3ccc4c(c3)[nH]c(=O)n4C)no2)cccc1[N+](=O)[O-]	105	112
COc1ccc(NC(=O)CCc2nnc3n(C)c(=O)c4sccc4n23)cc1	103	102
COc1ccc(NC(=O)c2c(N)c(C(=O)c3ccc(C)cc3)n3ccccc23)cc1OC	108	107
CC(C)c1ccc(NC(=O)CN2C(=O)COc3ccc(S(=O)(=O)N4CCCCC4)cc32)cc1	112	111
CCCCC(=O)NC1(C(F)(F)F)C(=O)Nc2c1c(=O)[nH]c(=O)n2-c1ccc(C)c(C)c1 (stereo not given)	102	105
CCOC(=O)c1cc(S(=O)(=O)Nc2ccccc2OCC)[nH]n1	100	101
Cc1ccc(CNc2nc(-c3ccco3)nn2C(=O)c2ccccc2[N+](=O)[O-])cc1	111	111
O=C(NCCc1ccccc1)c1ccc2c(c1)CCN2S(=O)(=O)c1ccccc1	110	108
Cc1cc(C)c(NC(=O)C2CCN(c3nn4c(=O)cc(C)nc4s3)CC2)c(C)c1	111	111
COCCn1c(CCC(=O)Nc2ccc(OC)c(OC)c2)nc2cccnc21	101	112
Cc1csc2nc(-c3cccc(NC(=O)c4ccccc4F)c3)cn12	108	104
CCC(C)NC(=O)Cn1c(=O)ccc2cc(S(=O)(=O)N3CCCC3)ccc21 (stereo not given)	102	108
Cc1cccc(OCCSc2nc3ccc(NC(=O)c4cccs4)cc3s2)c1	111	113
CCOC(=O)N1CCN(c2ncc3c(n2)CC(c2ccccc2O)CC3=O)CC1 (stereo not given)	107	109
CCOc1ccc(NC(=O)Cn2ccn(-c3ccc(F)c(F)c3)c(=O)c2=O)cc1	108	105
CC1CCc2nc3ncn(CC(=O)Nc4cccc(C#N)c4)c(=O)c3cc2C1 (stereo not given)	116	122
O=C(CSc1nccn1Cc1ccc(F)cc1)NCc1ccc(F)cc1	106	110
CCOC(=O)c1ccc(N2C(=O)c3n[nH]c(-c4ccco4)c3C2c2ccc(O)c(OCC)c2)cc1 (stereo not given)	101	107
CCOC(=O)c1cccc(NC(=O)c2cc(C)nc3c2c(C)nn3-c2ccc(C)cc2)c1	108	114
CCOc1ccc(-c2nonc2NC(=O)c2oc3ccc(Br)cc3c2C)cc1	109	110
CCC1Oc2ccc(C)cc2N(CC(=O)NCCc2ccccc2)C1=O (stereo not given)	113	107
Cc1cc(NC(=O)C2CCN(S(=O)(=O)c3cccc4nsnc34)CC2)ccc1Br	110	111
Cc1c(Cl)cccc1NC(=O)C1CCCN(c2ncnc3onc(C)c23)C1 (stereo not given)	113	112
Cc1cc(C)cc(NC(=O)C(=O)NCC(c2ccc3c(c2)OCO3)N2CCOCC2)c1 (stereo not given)	109	111
Cc1ccc(NC(=O)CSc2cn(CC(=O)N3CCOCC3)c3ccccc23)cc1Cl	117	112
O=C(Nc1ccc(-c2nc3cc(NC(=O)c4ccc(Cl)cc4)ccc3o2)cc1)c1ccc(Cl)cc1	109	108
COc1cccc2sc(N(Cc3cccnc3)C(=O)c3ccc(S(=O)(=O)N(C)C)cc3)nc12	106	109
CCN(CC)S(=O)(=O)c1ccc2c(c1)N(CC(=O)N1CCN(c3ccc(F)cc3)CC1)C(=O)CO2	105	107
COc1cccc(NC(=O)CCN2CCN(CCO)CC2)c1	101	97
O=C(CN1C(=O)CCSc2ccc(S(=O)(=O)N3CCCC3)cc21)Nc1cccc(Cl)c1	110	108
Cc1ccc2c(CNCCc3ccc(Cl)cc3)c(C(=O)O)n(Cc3ccc(F)cc3)c2c1	112	113
CCOC(=O)N1CCc2c(sc(NCc3cccs3)c2C(=O)Nc2ccc(OC)cc2OC)C1	104	93
CCOC(=O)C1CCCN(C(=O)Cn2ncc3c4ccccc4n(C)c3c2=O)C1 (stereo not given)	106	103
CCN(C(=O)CCc1nc(-c2ccc(C)cc2)no1)c1cccc(Cl)c1	102	98
CCOC(=O)c1c(S(=O)(=O)N2CCCC(C(=O)Nc3ccc(C)cn3)C2)c(C)n(C)c1C (stereo not given)	106	106
Cn1ncc2c(N3CCN(c4ccc(F)cc4)CC3)ncnc21	107	108
Cn1cc(S(=O)(=O)N2CCCC2)cc1C(=O)Nc1ccc(C(F)(F)F)cc1	100	90
Cc1ccc2oc(-c3ccc(C)c(NC(=O)c4ccc(N5CCC(C)CC5)c([N+](=O)[O-])c4)c3)nc2c1	101	98
CCS(=O)(=O)c1ccc(O)c(Nc2cc(C)nc(SC)n2)c1	101	94
O=C(CCS(=O)(=O)c1cc(Br)cc2c1N(C(=O)C1CC1)CC2)N1CCN(c2cccc(C(F)(F)F)c2)CC1	100	101
CCCN(CCC)C(=O)Cn1c(=O)n(-c2ccc(Cl)cc2)c(=O)c2c3c(sc21)CCCCC3	108	111
Cc1c(C(=O)Nc2ccc(C(C)C)cc2)sc2nc[nH]c(=O)c12	105	108
Remaining list, next part:
SMILES	PV pol inh	PV pol inh intensity
CC(C)(C)c1ccc(C2NC(=O)c3n[nH]c(-c4cccs4)c32)cc1 (stereo not given)	107	104
COc1ccccc1N1CCN(S(=O)(=O)CCNC(=O)COc2ccc(C(C)C)cc2)CC1	108	112
Clc1ccc(CNc2ncnc3onc(-c4ccc(Cl)cc4)c23)cc1	113	108
O=C(Nc1ccc(N2CCC(N3CCCCC3)CC2)c(C(=O)O)c1)c1ccc(Br)cc1	109	113
CCOc1ccc(NC(=O)c2cn(C)c(=O)c3cc(OC)c(OC)cc23)cc1	107	110
CC(C)Cn1c(CN2CCN(c3cccc(Cl)c3)CC2)nc2c1c(=O)[nH]c(=O)n2C	104	98
O=C(NCC(c1cccnc1)N1CCc2ccccc2C1)c1ccc(F)c(F)c1 (stereo not given)	108	111
CCCS(=O)(=O)N1CC(=O)N(c2cc(C)ccc2C)C(C)(C(=O)NC2CCCCCC2)C1 (stereo not given)	99	93
CC1=C(C(=O)Nc2cccnc2)C(c2cccc(F)c2)n2nc(SCc3ccccc3F)nc2N1 (stereo not given)	103	103
CCc1ccc2oc(-c3cccc(NC(=O)c4ccc(N5CCC(C)CC5)c([N+](=O)[O-])c4)c3)nc2c1	114	128

An excerpt of these results, with bars between the fields.
Compound | PV pol inh | PV pol inh intensity
Clc1ccc(CNc2ncnc3onc(-c4ccc(Cl)cc4)c23)cc1 | 113 | 108
O=C(Nc1ccc(N2CCC(N3CCCCC3)CC2)c(C(=O)O)c1)c1ccc(Br)cc1 | 109 | 113
CCOc1ccc(NC(=O)c2cn(C)c(=O)c3cc(OC)c(OC)cc23)cc1 | 107 | 110
